BJeLR viability = MLPCN primary cell-based screen for lethality selective to Ras in HRASV12 cells. BJeLR (HRASV12) viability, CellTiter-Glo ATP luminescence, 48 h; reference of the scale not given here. inhibition, % (concentration not given with the values). actives 0.17% (n = 300,000). AID 1554, 2009;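 active = replicate mean above 50%; inconclusive = above 50% but judged a plate artefact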;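 also: 50 nL library stock added to about 25 µL; numbers are from one replicate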
Mtb hypoxia rep = PubChem AID 1159583; M. tuberculosis hypoxia-regulated fluorescent reporter, fluorescence; fluorescence inhibition, % (concentration not given with the values); actives 0.1% (n = 300,000);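 active = 35 to 45% if threefold the growth effect, above 45% if 1.5-fold the growth effect; inactive = the rest, general growth blockers included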;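 also: wells of about 50 µL received 100 nL stock; 0% = vehicle wells and 100% = reference inhibitor wells; whole bacteria with a GFP reporter of the hypoxia response; strong numbers were not always called active; many hits fall short of the cut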
Sa ugtP lethal = growth inhibition of ugtP-null S. aureus, primary screen, RN4220 ugtP deletion, OD600; AID 1259309, 2017; 16 h; some inactives read as strong as hits; actives 0.54% (n = 330,000); growth inhibition, % (no concentration beside the values);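 active = z-score under -3 and OD600 up to 0.15 on both plates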;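 also: plate controls were untreated wells for no effect and antibiotic for full effect; wells of about 80 µL received 100 nL stock; the first replicate is given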
Sa RN4220 lethal = growth inhibition of S. aureus RN4220, primary screen, OD600 | inhibition, % (no concentration beside the values) | actives 0.33% (n = 330,000) | 16 h;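 active = z-score of -3 or lower and OD600 up to 0.18 on both plates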;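 also: plate controls were untreated cells for no effect and reference antibiotic for full effect; stock transfer was 100 nL into about 80 µL; one replicate is shown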
PrP UTR inh = inhibition of PrP 5' UTR reporter expression; AID 488862, 2010; cell-based PrP 5' UTR mRNA reporter, plate reader; actives 0.35% (n = 340,000); inhibition, % (test concentration not listed);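 active = every replicate at 50% or more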;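 also: 0 = median of the neutral control wells; tested in H4 reporter cells; numbers are from one replicate; inactives centre near -14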
Autofluor counter = counter-screen for toxin protease inhibitors: compound fluorescence; compound autofluorescence counterscreen, microsphere flow cytometry; hits give high values; fluorescence intensity (no concentration beside the values); actives 3.1% (n = 360,000); AID 624483;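 active = at least 3 SD above the mean of all compounds, about 16000 in these data; inconclusive = too few beads counted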;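 also: 100 nL of 1 mM stock went into each well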
Mtb hypoxia rep growth = second read-out of Mtb hypoxia rep, no call of its own (marks repeat the call); growth inhibition, %; measured here: M. tuberculosis growth (absorbance);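 0% = vehicle and 100% = reference antibiotic; read after six days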
* marks the source's active call; other numbers are inactive results; ? = inconclusive; . = not tested or not shown.

molecule | BJeLR viability | Mtb hypoxia rep | Mtb hypoxia rep growth | Sa ugtP lethal | Sa RN4220 lethal | PrP UTR inh | Autofluor counter
COc1ccc(N2CCN(C(=O)CN(c3ccc(OC)cc3)S(=O)(=O)c3ccccc3)CC2)cc1 | -3.3 | 2.5 | 4.9 | -1.3 | 5.9 | -14.9 | 5504
Cc1cccc(/N=C/c2c(O)cc(C)oc2=O)n1 | 7.7 | . | . | . | . | -3.7 | 3076
CCOc1ncccc1C(=O)OCc1cccc([N+](=O)[O-])c1 | 4.2 | -2.1 | -3.5 | 1.0 | 6.1 | -16.1 | 4293
CN1C(=O)c2ccc(NC(=O)c3cccc4ccccc34)cc2C1=O | -1.6 | -3.0 | -8.7 | 4.3 | 6.0 | . | 2958
COc1ccc(C=NNC(=O)c2ccccc2O)cc1CN1CCOCC1 | . | 11.3 | 10.2 | 3.7 | 3.6 | . | .
O=C(CN1CCN(c2ccc(Cl)cc2)CC1)c1ccc2c(c1)OCO2 | -6.7 | . | . | -8.2 | -7.4 | -0.6 | 2725
O=C(NN=Cc1ccc(N2CCCC2)c([N+](=O)[O-])c1)c1cccnc1 | . | 14.3 | 9.0 | 4.2 | 6.3 | . | .
COC(=O)C1(C)NC(c2cccs2)C2C(=O)N(c3ccccc3F)C(=O)C21 (stereo unspecified) | -6.5 | 5.6 | 5.1 | 3.0 | 1.1 | -19.6 | 4113
CCC1CCCCN1Cc1ccc(OC)c(C)c1 (stereo unspecified) | -0.7 | -0.5 | -5.3 | 3.0 | 4.9 | -20.0 | 10150
CCN(C(=O)CN1C(=O)NC(c2ccccc2)(c2ccc(C)c(C)c2)C1=O)C1CCCCC1 (stereo unspecified) | . | -7.8 | 2.9 | -5.1 | -6.5 | -17.3 | 4055
COc1ccc(C=NNc2ncccc2[N+](=O)[O-])c(OC)c1 | . | -3.8 | 1.5 | -10.7 | -1.2 | . | .
Cc1ccc(-n2cnc3c(sc4nc(N5CCOCC5)c5c(c43)CCCC5)c2=O)cc1 | -1.5 | -4.1 | 18.7 | -7.2 | -2.0 | . | 6150
Cc1cccc(NC(=O)C2CCCN(C(=O)Nc3ccc(F)cc3)C2)c1 (stereo unspecified) | -5.5 | . | . | . | . | -11.6 | 5605
CCOc1ccc(NC(=O)CC(C)=NNC(=O)c2cnccn2)cc1 | . | 1.0 | -6.5 | 8.8 | 2.8 | . | .
COc1cccc(CN(C)CC(=O)NNC(=O)c2ccc(Cl)cc2)c1 | 6.0 | . | . | . | . | -19.4 | 2382

Some values from the entries so far.
Autofluor counter, COc1ccc(N2CCN(C(=O)CN(c3ccc(OC)cc3)S(=O)(=O)c3ccccc3)CC2)cc1 is entered as 5504
Sa RN4220 lethal, CCOc1ccc(NC(=O)CC(C)=NNC(=O)c2cnccn2)cc1 is entered as 2.8
BJeLR viability, CCC1CCCCN1Cc1ccc(OC)c(C)c1 (stereo unspecified) is entered as -0.7

Further structures:
molecule | BJeLR viability | Mtb hypoxia rep | Mtb hypoxia rep growth | Sa ugtP lethal | Sa RN4220 lethal | PrP UTR inh | Autofluor counter
CCNS(=O)(=O)c1ccc(CCC(N)=O)cc1 | 0.2 | 3.1 | -7.2 | 0.3 | 3.6 | 9.6 | 2087
COc1c2c(nc3occc13)C(CC=C(C)C)(OC)C(OC(C)=O)CC2 (stereo unspecified) | -6.5 | . | . | -0.6 | -0.9 | -11.0 | .
Cc1ccc(NC(=O)CCS(=O)(=O)c2ccc3c(c2)NC(=O)C(C)S3)cc1Cl (stereo unspecified) | -3.8 | -7.8 | 5.7 | -10.2 | 0.7 | 1.3 | 5835
CC(C)(C)c1ccc(C(=O)N2CCN(c3ncccn3)CC2)cc1 | 12.6 | 4.2 | 9.9 | 4.4 | 3.1 | -11.8 | 3556
COc1cc(/C=C/C(=O)OCC(=O)Nc2ccc3c(c2)OCCO3)ccc1O | -3.0 | 5.8 | 5.2 | 2.0 | -0.1 | -21.2 | 8307
COc1ccc(Cl)cc1NC(=O)CCS(=O)(=O)c1cc2c(cc1C)NC(=O)CO2 | 4.3 | 8.6 | 4.7 | -6.5 | -6.5 | -3.8 | 6575
O=C(c1cccs1)C1CCCN(Cc2nc(Cc3ccccc3F)no2)C1 (stereo unspecified) | 2.4 | -1.8 | 2.8 | 15.1 | 2.4 | -15.0 | 2562
CCN(CC)C(=O)CNc1ccc(C(F)(F)F)cc1[N+](=O)[O-] | -1.1 | 6.1 | 9.6 | -1.5 | 5.6 | -13.7 | 2138
O=S(=O)(c1ccccc1)c1cnn2c(C(F)(F)F)cc(-c3ccccc3)nc12 | -2.8 | 2.7 | 2.8 | -6.7 | 3.4 | -26.8 | 9640
O=C(CC(=O)c1cccs1)c1ccncc1 | . | 18.2 | 15.8 | 3.5 | -2.8 | -44.3 | 3429
CCOC(=O)N1CCC(N2C(=O)c3ccccc3C2Nc2ccc(S(=O)(=O)N(CC)CC)cc2)CC1 (stereo unspecified) | -3.4 | -9.2 | 8.1 | 4.0 | 3.7 | -36.0 | 4664
CC1(C)CN(c2cccc(-c3ccnc4ncnn34)c2)C1=O | -1.5 | 1.9 | 2.9 | -1.2 | 2.9 | -13.9 | 3148
Cc1c(C#N)c2ccccc2n1CC(=O)N1CCc2ccccc2C1 | -6.7 | . | . | 5.0 | -0.5 | -4.0 | 5927
O=C(COc1ccc2ccc(=O)oc2c1)NCCCN1CCCC1=O | 6.1 | 3.7 | 2.4 | 5.7 | -2.8 | -14.1 | 5012
CCCCn1c(SCC(=O)N2CCOCC2)nnc1-c1cccs1 | -15.1 | -1.8 | -2.6 | -1.8 | 2.1 | -21.7 | 15992
O=c1[nH]c(SCc2cccc(F)c2)nc2c1CCCC2 | 3.5 | . | . | . | . | 6.9 | 7774
O=C(CCN1C(=O)/C(=C\c2cccs2)SC1=S)Nc1nccs1 | -7.5 | 12.0 | 7.9 | 7.1 | 5.7 | -17.3 | 2004
Cc1ccsc1C(=O)OCC(=O)NCCC1=CCCCC1 | 0.4 | 9.6 | -0.7 | -4.7 | 4.8 | -27.1 | 2718
Cc1ccc2cc(C#N)c(NCCNC(=O)C3CCC3)nc2c1C | 10.7 | 2.5 | 6.5 | -2.5 | 3.6 | -16.8 | 5095
COCCCn1c(=O)/c(=C\c2ccccc2OC(F)F)s/c1=C(/C#N)C(=O)N1CCOCC1 | -0.9 | . | . | . | . | -46.7 | 4480
COc1cc(/C=C/C(=O)N2CCc3ccccc3C2)cc(OC)c1OC | 3.7 | 11.8 | 2.0 | -0.5 | 1.6 | -13.9 | 4142
CNC(=O)CSc1nc2ccccc2c(=O)n1CCc1ccccc1 | 0.1 | 3.0 | 7.0 | 5.0 | 1.5 | -20.3 | ?
CC(C)CNC(=S)NC1CC2CCCC(C1)N2C1CCCCC1 (stereo unspecified) | -5.5 | -1.0 | 3.9 | 9.3 | 7.1 | -13.5 | 4248
Clc1ccccc1N1CCN(c2ncnc3nc[nH]c23)CC1 | -4.8 | 8.7 | 5.7 | 11.6 | 2.8 | -36.1 | 6012
O=C(O)c1cc(-c2ccccc2)n(-c2ccccc2)n1 | -2.3 | 2.6 | 1.9 | -5.6 | -1.7 | -15.9 | 4477
Cc1ccc(S(=O)(=O)N2CCOCC2)cc1C(=O)OCC(=O)NCc1ccc2c(c1)OCO2 | . | 7.8 | -0.8 | 3.0 | 6.9 | -16.7 | 8696
Cc1ccc(NC(=O)OCC(F)(F)C(F)F)cc1NC(=O)OCC(F)(F)C(F)F | 0.4 | 6.8 | 14.9 | -2.5 | 4.0 | -0.3 | 21692*
Cc1cc(C(=O)Nc2ccon2)ccc1[N+](=O)[O-] | -1.8 | 10.2 | -5.5 | 3.8 | 3.9 | . | 5571
CCC(C(=O)NCCN1CCOCC1)n1nc(C)n2c(cc3sccc32)c1=O (stereo unspecified) | 5.0 | 12.2 | -2.2 | 4.1 | 1.6 | -4.8 | 5672
O=C1CCC(c2ccccc2)N1c1ccccc1 (stereo unspecified) | . | 7.0 | 3.8 | 6.2 | -0.3 | -7.8 | 3900

Structural class, those above containing an NH in an aromatic ring
molecule | BJeLR viability | Mtb hypoxia rep | Mtb hypoxia rep growth | Sa ugtP lethal | Sa RN4220 lethal | PrP UTR inh | Autofluor counter
O=c1[nH]c(SCc2cccc(F)c2)nc2c1CCCC2 | 3.5 | . | . | . | . | 6.9 | 7774
Clc1ccccc1N1CCN(c2ncnc3nc[nH]c23)CC1 | -4.8 | 8.7 | 5.7 | 11.6 | 2.8 | -36.1 | 6012

Continuation:
molecule | BJeLR viability | Mtb hypoxia rep | Mtb hypoxia rep growth | Sa ugtP lethal | Sa RN4220 lethal | PrP UTR inh | Autofluor counter
CCOc1ccccc1NC(=O)C(OC(=O)c1ccccc1NS(=O)(=O)c1cccs1)c1ccccc1 (stereo unspecified) | -8.6 | -4.6 | 12.2 | 2.4 | 1.5 | -4.7 | 1917
Cc1ccc(Cl)cc1N(CC(=O)Nc1cccc(N(C)S(C)(=O)=O)c1)S(C)(=O)=O | 7.3 | 5.1 | 9.0 | 3.1 | 3.2 | -16.2 | 4152
Cc1c(Br)c(O)c(Br)c2sc(=O)oc12 | . | 7.2 | -8.2 | 27.2 | 22.6 | -20.8 | 4811
CC(=O)Nc1ccc(S(=O)(=O)Nc2ccc(Nc3ccccc3)cc2)cc1 | 6.1 | -7.0 | -5.3 | 0.5 | -2.0 | -4.3 | 3495
O=C(C1CCCN(S(=O)(=O)c2cccc3nsnc23)C1)N1CCC2(CC1)OCCO2 (stereo unspecified) | . | 3.7 | 11.0 | 4.9 | 0.3 | . | .
CCc1nnc(SCC(=O)N2CCCC(N3CCN(c4ccccc4C)CC3)C2)o1 (stereo unspecified) | -0.9 | 9.1 | 1.0 | -3.0 | 1.6 | -15.5 | 5088
COc1ccc2c(c1)NC(c1cc(Cl)cc(Cl)c1O)c1cccn1-2 (stereo unspecified) | . | -3.5 | 6.5 | -6.1 | -1.6 | -16.2 | 4125
COc1cccc(C(=O)NCc2ccc3c(c2)OCO3)c1OC | -1.6 | 7.2 | 4.2 | 4.5 | 7.7 | -12.1 | ?
Oc1ccc(Cl)cc1CNc1cnc2ccccc2c1 | -6.9 | -11.4 | -12.9 | -22.8 | 9.3 | -4.8 | 3699
CSc1ccccc1C(=O)N1CCN(c2ncccn2)CC1 | -5.6 | 2.3 | 6.3 | 5.6 | 3.5 | 2.9 | 4255
COc1cc(CN2CCN(Cc3ccc(C(F)(F)F)cc3)CC2)cc(OC)c1OC | 0.9 | 6.8 | -1.5 | 10.0 | 1.9 | -19.4 | .
O=C(COc1nc2ccccc2nc1N1CCOCC1)Nc1cccc(S(=O)(=O)N2CCCCC2)c1 | -4.8 | 13.0 | 13.4 | -0.8 | 0.2 | -14.9 | 7601
COC(=O)C1CC2=C(CCCC2=O)N(Cc2ccccc2)C1=O (stereo unspecified) | . | -3.3 | 5.2 | 1.3 | -2.0 | -14.1 | 3625
Cc1c(C(=O)C(=O)NCc2ccco2)c2ccccc2n1C | -5.6 | 14.2 | 3.7 | 11.8 | 5.6 | -20.4 | 3687
Cc1ccc(OCC(=O)N/N=C/c2cccnc2)cc1 | -2.8 | . | . | . | . | -13.8 | 6835
COc1ccc(NC(=O)c2cn(C)c(=O)c3cc(OC)c(OC)cc23)c(OC)c1 | 7.0 | 11.5 | 0.6 | -4.9 | 2.3 | -18.9 | 3527
CC(C)(CN1CCCCC1)NS(=O)(=O)c1ccc(Cl)cc1 | -0.8 | . | . | 1.9 | -2.3 | -11.9 | 4759
COc1ccc(-c2nn(-c3ccccc3)cc2/C=C\C(=O)Nc2ccc(C(=O)O)cc2)cc1 | -5.4 | 3.7 | 4.6 | 7.1 | 13.5 | -15.3 | 3613
Cc1ccc(C)c(C(=O)COC(=O)CNS(=O)(=O)c2ccccc2)c1 | 6.8 | -0.3 | -1.3 | -7.2 | 4.5 | -17.6 | 4205
FC(F)(F)c1ccc(/C=N/NC(=S)NC2CCCCC2)cc1 | -10.3 | . | . | . | . | -11.1 | 4333
Cc1noc(C)c1CC(=O)N1CCCC(C(=O)c2ccc(C(C)(C)C)cc2)C1 (stereo unspecified) | -0.6 | 0.6 | 2.3 | 10.2 | 4.6 | -15.5 | 2565

Assay outcomes deposited in PubChem by several laboratories.

Rows were taken by chance; overall some 3.9% were active at least once.
